Screening results (PubChem BioAssay)
GIRK2 activ = opens human GIRK2 potassium channels | P48051 | HEK293-GIRK2 thallium flux, Thallos fluorescence | calls only for hits at 25 µM | hit rate 0.05% among 63,000 | AID 1259325;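 active means among the strongest 0.2% of first-round signals and kept after retests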;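 further: first round at about 10 µM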
Target sequence (P48051 whole entry, looked up): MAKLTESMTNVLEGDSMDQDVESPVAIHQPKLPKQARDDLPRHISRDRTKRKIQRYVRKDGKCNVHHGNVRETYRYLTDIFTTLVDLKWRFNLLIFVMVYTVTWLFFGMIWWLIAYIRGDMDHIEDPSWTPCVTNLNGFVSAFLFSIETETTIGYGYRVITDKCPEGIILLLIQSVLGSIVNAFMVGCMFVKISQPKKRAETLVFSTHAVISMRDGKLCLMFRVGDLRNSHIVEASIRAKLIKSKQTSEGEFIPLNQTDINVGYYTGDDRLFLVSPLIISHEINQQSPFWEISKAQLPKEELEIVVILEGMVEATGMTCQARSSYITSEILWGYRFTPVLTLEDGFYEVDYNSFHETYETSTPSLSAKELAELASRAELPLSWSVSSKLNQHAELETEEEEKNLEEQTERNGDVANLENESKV
Calls only; i = inactive.

A first look, two compounds:
SMILES	GIRK2 activ
CC(O)CN1CCN(C(=O)/C=C/c2ccccc2Cl)CC1 (configuration not stated)	i
O=C(NCc1ccccc1)c1cn(Cc2ccc(NC(=O)C3CCCCC3)cc2)cn1	i

Results, from the first entry:
SMILES	GIRK2 activ
CC(O)CN1CCN(C(=O)/C=C/c2ccccc2Cl)CC1 (configuration not stated)	i
O=C(NCc1ccccc1)c1cn(Cc2ccc(NC(=O)C3CCCCC3)cc2)cn1	i
Cc1cccc(S(=O)(=O)N2CCN(c3ccccc3)CC2)c1	i
CCOc1ccc(OCC(=O)Nc2cc(-c3cccs3)nn2-c2nc(C)c(C)c(=O)[nH]2)cc1	i
CCOC(=O)CNC(=O)CN1CCC(Cn2cnc3cc(C)c(C)cc32)CC1	i
CC(=O)N1CCN(C(=O)CCc2csc(NC(=O)Nc3ccccc3)n2)CC1	i
CSc1ccccc1CN1CCC(CNC(=O)c2cnoc2C)CC1	i
CCOc1ccc(N2CC(C)Cn3c2nc2c3c(=O)n(CCc3ccccc3)c(=O)n2C)cc1 (configuration not stated)	i
CC(C)NC(=O)c1ccc2c(=O)n(Cc3ccccc3)c3nn(CC(=O)NC(C)(C)C)c(=O)n3c2c1	i
NC(=O)c1nnn(-c2ccc(NC(=O)c3ccc(C(F)(F)F)cc3)cc2)n1	i
COc1ccc2cccc(NC(=O)C(=O)c3c[nH]c4ccccc34)c2n1	i
CN1CC(C(=O)N2CCC(Oc3ccc(C(F)(F)F)cn3)CC2)CC1=O (configuration not stated)	i
CCCCC[C@H](O)/C=C/[C@H]1C2CC(CO2)[C@@H]1C/C=C\CCCC(=O)O (some centres not stated)	i
Cc1cn2c(CCC(=O)NC3CCCCC3)csc2n1	i
CSc1c(C2=C(c3cn(C)c4ccccc34)C(=O)NC2=O)c2ccccc2n1C	i
CCOC(=O)COc1ccccc1C1=NN(C(C)=O)C(c2ccccc2)C1 (configuration not stated)	i
COc1cc(C(=O)C2(C)OC2(C)C(=O)c2ccc(O)c(OC)c2)ccc1O (configuration not stated)	i
COc1ccc(C(O)C(C)OC(c2ccc(OC)cc2)C(C)O)cc1 (configuration not stated)	i
COc1cccc(C(=O)Nc2ccc(Cn3cnc(C(=O)Nc4ccccc4C)c3)cc2)c1	i
CC1=C(C(N)=O)C(c2cccc(Cl)c2Cl)NC(=S)N1 (configuration not stated)	i

Reprinted at random: 3 entries already listed.
SMILES	GIRK2 activ
COc1cc(C(=O)C2(C)OC2(C)C(=O)c2ccc(O)c(OC)c2)ccc1O (configuration not stated)	i
COc1ccc2cccc(NC(=O)C(=O)c3c[nH]c4ccccc34)c2n1	i
CCOC(=O)COc1ccccc1C1=NN(C(C)=O)C(c2ccccc2)C1 (configuration not stated)	i

Exported with each value named: part of the list above.
CSc1c(C2=C(c3cn(C)c4ccccc34)C(=O)NC2=O)c2ccccc2n1C
  GIRK2 activ = i
COc1ccc2cccc(NC(=O)C(=O)c3c[nH]c4ccccc34)c2n1
  GIRK2 activ = i
CCOC(=O)COc1ccccc1C1=NN(C(C)=O)C(c2ccccc2)C1 (configuration not stated)
  GIRK2 activ = i
CN1CC(C(=O)N2CCC(Oc3ccc(C(F)(F)F)cn3)CC2)CC1=O (configuration not stated)
  GIRK2 activ = i

Continued:
SMILES	GIRK2 activ
COc1cccc2cc(C(=O)OC(C)C(=O)c3ccc(F)cc3)c(=O)oc12 (configuration not stated)	i
CC(C)C(=O)Nc1c(-c2ccccn2)nsc1C(=O)NCc1cccc(Cl)c1	i
COc1ccc(C2OCC3C(c4ccc(OC)c(O)c4)OCC23)cc1O (configuration not stated)	i
O=C1NC(CCC(=O)N2CCCCCC2)C(=O)Nc2ccccc21 (configuration not stated)	i
Cc1ccc(CNC(=O)CSc2cc(C)nc(-c3ccc(F)cc3)n2)cc1	i
Cn1c(=O)c(Oc2cccc(F)c2)cc2cnc(NC3CCOCC3)nc21	i
O=C(Cn1nc2c(Oc3ccc(Cl)cc3)nccn2c1=O)Nc1ccc2c(c1)OCO2	i
COc1cccc(NC(=O)Cn2cc(S(=O)(=O)c3ccc(C)cc3)c(=O)c3cc(F)ccc32)c1	i
CCc1ccc(NC(=O)Cn2c(=O)n(CCCCC(=O)NC(C)C)c(=O)c3ccccc32)cc1	i
c1ccc2[nH]c(-c3cscn3)nc2c1	i
O=C(NCc1cccc2ccccc12)Nc1ccc(N2CCCCC2=O)cc1	i
CCCCn1cnc2c(-c3ccccc3)cn(CC(=O)Nc3ccc(OC)cc3)c2c1=O	i
CCN1CCc2c(sc(NC(=O)CCOc3ccccc3)c2-c2nc3ccccc3s2)C1	i
COc1ccc(/C=C/C(=O)Nc2ccc(N3CCOCC3)cc2)cc1OC	i
Cc1csc(NC(=O)C2CCCN(c3ccc(-c4ccc(Cl)cc4)nn3)C2)n1 (configuration not stated)	i
COc1cccc2sc(N3CC(C(=O)NCc4nc(-c5ccccc5)no4)C3)nc12	i
COC(=O)c1ccc(C(=O)Nc2ccc(Cl)c3ncsc23)cc1	i
O=C(COc1ccc(-n2cccn2)nn1)Nc1cc(F)ccc1F	i
COc1ccc(C)cc1NC(=O)C(=O)NCC(C)(O)CCSC (configuration not stated)	i
CN1CCc2c(sc(NC(=O)CN3C(=O)c4ccccc4C3=O)c2-c2nc3ccccc3s2)C1	i
COc1ccc(-c2csc3c(=O)[nH]c(N4CCN(Cc5ccccc5)CC4)nc23)cc1	i
Cc1c(Cl)cccc1S(=O)(=O)N1CCc2nc(NC(=O)c3ccoc3)sc2C1	i
Cc1ccc(S(=O)(=O)N(C)c2ccsc2C(=O)NCc2ccc(F)cc2Cl)cc1	i
COc1ccc(-c2cc(N3CCC(C(=O)Nc4cc(Cl)ccc4C#N)CC3)ncn2)cc1	i
O=C(N1CCN(S(=O)(=O)C2CC2)CC1)C1(c2cccs2)CCCC1	i
O=C(NCCCN1CCN(c2ccccc2)CC1)C(=O)NC1CCCCCC1	i
CSc1cccc(NC(=O)C(=O)NCCCn2ccnc2-c2ccccc2)c1	i
COCCn1c(=O)c2c(nc3n(-c4cc(C)ccc4C)c(-c4ccccc4)cn23)n(C)c1=O	i
COc1ccc(NC(=O)c2cn(CC(O)c3cccs3)nn2)cc1Cl (configuration not stated)	i
COc1ccc(C)cc1NC(=O)CSc1ncnc2c1[nH]c1ccc(F)cc12	i
O=C(NCc1ccccc1)C(=O)NCC(O)c1ccoc1 (configuration not stated)	i
CS(=O)(=O)Oc1ccc2c(=O)c(Oc3ccccc3Br)c(C(F)(F)F)oc2c1	i
O=C(Nc1ccc(F)cc1)N1CCCC(c2nnc(-c3cccs3)o2)C1 (configuration not stated)	i
Cc1ccc(CNC(=O)c2sccc2S(=O)(=O)N2CCN(c3ccccc3)CC2)cc1	i
O=C(CN1CCN(S(=O)(=O)N2CCOCC2)CC1)Nc1ccc(Cl)c(Cl)c1	i
CC(C)c1nnc(C2CCN(C(=O)/C=C/c3ccccc3)CC2)o1	i
COc1ccc(-n2nnc3c(=O)n(Cc4nc(-c5ccc(SC)cc5)no4)cnc32)cc1	i
CCC(=O)Nc1c(-c2cccs2)c(=O)c2ccccc2n1C	i
O=C(CCc1csc(NC(=O)c2ccc[nH]c2=O)n1)Nc1ccccc1	i
CCOCCn1c(=O)c2c(nc(-n3nc(C)cc3C)n2Cc2ccccc2F)n(C)c1=O	i
CCCCCC(=O)CC[C@H]1[C@H](O)CC(=O)[C@@H]1C/C=C\CCCC(=O)O	i
COc1ccc(C(O)=C2C(=O)C(=O)N(CCN(C)C)C2c2cc(OC)ccc2OC)cc1 (configuration not stated)	i
COCCN(Cc1ccsc1)C(=O)c1ccc2nsnc2c1	i
O=C(/C=C/c1cccs1)N(CCn1cccn1)c1nc2ccccc2s1	i
CCOC(=O)c1ccc(NS(=O)(=O)C2CC2)cc1	i
COC(=O)c1ccc(S(=O)(=O)NCCC(O)c2cc(C)oc2C)cc1 (configuration not stated)	i
COc1ccccc1OCC(=O)Nc1ccc(OC)c(N2CCCCC2=O)c1	i
O=C(CN1CCN(CC(O)C2CC2)CC1)NC1CC1 (configuration not stated)	i
O=C(NCc1ccc(C(F)(F)F)cc1)c1c(O)c2sccc2[nH]c1=O	i
COc1ccc(Cl)cc1NC(=O)NCCN1CCN(c2ccccc2F)CC1	i

Additional records follow:
SMILES	GIRK2 activ
Cc1cc2oc3c(c(=O)c2cc1C)C(c1cccc(OC(C)C)c1)N(CCN(C)C)C3=O (configuration not stated)	i
Cn1nc(-c2ccccc2)cc1C(=O)NCCc1csc2nc(-c3cccc(F)c3)nn12	i
COc1ccc(NC(=O)Cn2nc3c4cc(-c5ccc(OC)cc5)nn4ccn3c2=O)cc1	i
COc1ccccc1CNC(=O)C(=O)NCC(c1cn(C)c2ccccc12)N(C)C (configuration not stated)	i
O=C(OC[C@@]1(O)CO[C@@H](O[C@H]2[C@H](Oc3ccc(O)cc3)O[C@H](CO)[C@@H](O)[C@@H]2O)[C@@H]1O)c1ccc(O)cc1	i
O=C(Cc1cccs1)N1CCOCC1CO (configuration not stated)	i
O=C(Cc1c[nH]c2ccccc12)Nc1ccccc1NC(=O)c1ccccc1F	i
O=[N+]([O-])c1ccc(CSc2nnc(-c3cccc(S(=O)(=O)N4CCCCC4)c3)o2)cc1	i
CCNS(=O)(=O)c1c(C)cc(C)c(N(C)S(C)(=O)=O)c1C	i
COc1cccc(Cn2c(=O)c3sccc3n(Cc3nc(-c4cccc(C)c4)no3)c2=O)c1	i
COc1ccc(CC(=O)Nc2cc(C)ns2)cc1OC	i
COc1cccc(-n2c(N3CCCC(C(=O)NCC4CC4)C3)nc3ccsc3c2=O)c1 (configuration not stated)	i
Cc1ccc(C)c(CN2CCCN(CC(=O)Nc3cccc(C(F)(F)F)c3)S2(=O)=O)c1	i
COc1ccc(NC(=O)Cn2nc3c(N4CCCC4)nccn3c2=O)cc1Cl	i
CS(=O)(=O)N1CCN(C(=O)c2ccc(OCC(=O)C3CC3)cc2)CC1	i
CCC(=O)NCC1CCC(c2nc3ccccc3[nH]2)CC1 (configuration not stated)	i
CC(CCc1ccco1)NC(=O)c1nnn(-c2ccccc2)c1-c1ccccn1 (configuration not stated)	i
CCOC(=O)c1cccc(NC(=O)Cn2ccn3nc(-c4ccc(OC)c(OC)c4)cc3c2=O)c1	i
CC1CCN(c2nc3c(c(=O)n(C)c(=O)n3C)n2CC(O)COc2ccc(Cl)cc2)CC1 (configuration not stated)	i
COc1ccc(-c2nnc3ccc(OCCNC(=O)C4CC4)nn23)cc1OC	i
CNc1cc(S(=O)(=O)N2CCCC2)ccc1OC	i
O=C(Nc1cccc2ccc(-n3ccnc3)nc12)c1ccccc1C(F)(F)F	i
O=c1c(-c2nc(-c3ccccc3Cl)no2)cccn1Cc1noc(-c2cccc(F)c2)n1	i
COC(=O)c1ccc(C(=O)N2CCC3(CC2)OCCCO3)cc1	i
Cn1nc(-c2ccccc2)cc1C(=O)Nc1nc2c(s1)CN(S(=O)(=O)C1CC1)CC2	i
COc1ccccc1N1CCN(C(=O)c2cn(-c3cc(N4CCCCC4)ncn3)cn2)CC1	i
Cn1nc(CNC(=O)c2cccc(Cl)c2)cc1-c1ccco1	i
O=C(Cc1c[nH]c2ccccc12)Nc1ccc(Nc2cc(-n3cccn3)ncn2)cc1	i
COCCCn1c(SCc2nc(-c3cccc(Cl)c3)no2)nc2cc3c(cc2c1=O)OCO3	i
CN(C)CC1COCCN1C(=O)c1ccc(C#N)cc1 (configuration not stated)	i

Ordered by SMILES length (lowest first): some entries from above
SMILES	GIRK2 activ
CC(O)CN1CCN(C(=O)/C=C/c2ccccc2Cl)CC1 (configuration not stated)	i
O=C(COc1ccc(-n2cccn2)nn1)Nc1cc(F)ccc1F	i
COc1ccc(NC(=O)Cn2nc3c(N4CCCC4)nccn3c2=O)cc1Cl	i
O=C(NCc1ccc(C(F)(F)F)cc1)c1c(O)c2sccc2[nH]c1=O	i

The listing continues.
SMILES	GIRK2 activ
COc1cccc(CSc2nc(CC(=O)NCCC3=CCCCC3)cc(=O)[nH]2)c1	i
O=S(=O)(NCC1CCN(S(=O)(=O)c2cccnc2)CC1)c1ccc2c(c1)CCCC2	i
CC(=O)Nc1ccc(S(=O)(=O)NCC(O)c2ccc3c(c2)CCO3)cc1 (configuration not stated)	i
COc1cc(Br)c(C2NC(=O)NC(C)=C2C(=O)Nc2ccc(F)cc2)cc1OC (configuration not stated)	i
COc1ccc(Nc2cc(C(=O)N3CCCCC3)nc3c(OC)cccc23)cc1OC	i
COc1ccc(-c2cc(C(F)(F)F)c(C#N)c(SCC(=O)NC(C)(C)C)n2)cc1	i
COc1ccc(F)cc1S(=O)(=O)N1CCC(CSc2nccn2C)CC1	i
Cc1cc(C)n(CCNC(=O)C2CSCCC(=O)N2)n1 (configuration not stated)	i
O=C(Nc1ccc(S(=O)(=O)N2CCOCC2)cc1)c1ccoc1	i
CNC(=O)CSc1nnc(N2CCN(C(=O)COc3ccc(Cl)cc3)CC2)s1	i
O=C(CCn1c(=O)oc2ccc(Cl)cc21)NCCc1ccccc1	i
CCc1ccc(Oc2cc(N3CCC(C(=O)N4CCc5ccccc5C4)CC3)ncn2)cc1	i
O=C(Nc1nc(-c2cccnc2)cs1)c1csc(Nc2ncccn2)n1	i
CN(CC(=O)Nc1ccc(S(N)(=O)=O)cc1)c1nc2ccccc2s1	i
Cc1ccc(C2NC(=O)N(CC(=O)Nc3cccc(Cl)c3C)C3=C2C(=O)OC3)cc1 (configuration not stated)	i
O=C(Cc1ccc(NC(=O)NC2CC2)cc1)NCc1cccs1	i
O=C1NC(=O)C(c2c[nH]c3ccccc23)=C1c1c[nH]c2ccccc12	i
CCCNC(=O)CCCCn1c(=O)c2ccccc2n(Cc2cc(C=O)ccc2OC)c1=O	i
COc1ccc(S(=O)(=O)NC(C)Cc2cccs2)cc1Cl (configuration not stated)	i

A portion of the library. The share of hits here may be higher or lower than overall.
